# HSD17B inhib: blocks hydroxysteroid 17-beta dehydrogenase activity | AID 893 | Q99714 | actives 7.6% (n = 75,000) | Potency, µM (highest dose often 57.1 µM), inactives show top-dose activity change, negative = inhibition, hits mostly inhibitors | recombinant HSD17B10, NADH fluorescence kinetic; many of its hits are not listed in these tables; active = well fitted inhibition curve with a large enough effect; inconclusive = small, poorly fitted or top-dose-only effect; inactive = no such curve, though single readings can be large or run the other way;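 note: the protocol describes HADH2 (HSD17B10) and not the HSD17B4 of the title; nearly all actives have a fitted effect of over 70% in size; most hits overshoot -100% by far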
#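 Enzyme plus compound, 15 min room temperature; substrate mix added (NAD+ 1 mM, beta-hydroxybutyryl-CoA 90 uM final); plates read kinetically for NADH fluorescence. HADH2 was His-tagged, E. coli-derived, 20 nM.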
# The depositor's hits bear a star; ? = inconclusive; [ ] = dose if it differs, or a comment. % is set by controls: 0 for no effect and ±100 for the full control effect; potency is the fitted concentration of half-maximal effect.
SMILES,HSD17B inhib
COCCN(CC(=O)NCc1ccccc1)C(=O)CCC(=O)Nc1ccccn1,25µM*
COc1ccc(NC(=O)c2[nH]c(C)c(C(C)=O)c2C)cc1Cl,9%
Cn1c(=O)c2c(nc(NCc3ccccc3)n2CC(=O)NCc2ccccc2)n(C)c1=O,12%
O=C(OCC#CCSc1nc2ccccc2s1)c1ccco1,-11%
O=C(O)c1cccc(Cn2cc(Br)cn2)c1,-3%
Cc1ccc(NC2=Nc3ccccc3CS2)cc1,-2%
CCn1ncc(Br)c1C(=O)Nc1nccs1,4%
CCC1CCCCN1S(=O)(=O)c1ccc(NC(=O)CSc2ncccc2C(=O)O)cc1 (stereo unspecified),2%
CCOC(=O)C1CCN(C(=O)c2cn(C)c(=O)c3cc(OC)c(OC)cc23)CC1,?
COc1ccc(-c2nc(CN3CCC(C(=O)NC4CCCc5ccccc54)CC3)c(C)o2)cc1OC (stereo unspecified),6%
O=C1OCCC1Sc1nc2ccccc2n1Cc1ccccc1 (stereo unspecified),4%
CN1C(=O)NC(NC(=O)c2cccs2)(C(F)(F)F)C1=O (stereo unspecified),10%

# Brought forward from above: 3 compounds, followed by the next part.
SMILES,HSD17B inhib
COc1ccc(-c2nc(CN3CCC(C(=O)NC4CCCc5ccccc54)CC3)c(C)o2)cc1OC (stereo unspecified),6%
O=C1OCCC1Sc1nc2ccccc2n1Cc1ccccc1 (stereo unspecified),4%
CN1C(=O)NC(NC(=O)c2cccs2)(C(F)(F)F)C1=O (stereo unspecified),10%
O=C1c2ccccc2C(=O)N1CCCOCc1c[nH]c(=O)[nH]c1=O,6%
O=C(Nc1ccc2c(c1)OCCO2)C1CCN(S(=O)(=O)Cc2ccccc2)CC1,-6%
CCN(CC)C(=O)C1CC(=O)N(c2ccc(F)c(Cl)c2)C1 (stereo unspecified),9%
COc1ccc(S(=O)(=O)Nc2cccc(SC)c2)cc1OC,6%
CS(=O)(=O)Nc1ccc(C(=O)NCCc2ccccc2)cc1,-2%
CCOc1ccccc1NC(=O)CN1C(=O)COc2ccc(Cl)cc21,14%
O=c1c(O)cc(C2Oc3cc(O)cc(O)c3CC2O)cc2c(C3Oc4cc(O)cc(O)c4CC3O)cc(O)c(O)c12 (stereo unspecified),7.9µM*
O=C(Nc1nc(-c2ccc(S(=O)(=O)N3CCCC3)cc2)cs1)c1cccs1,?
COc1ccc(-n2nnnc2-c2cccnc2)cc1,1%
CC(CCc1ccccc1)NC(=O)c1cc2sccc2n1C (stereo unspecified),-13%
CCN(CC(=O)NCc1ccc(F)cc1)C(=O)C1CCN(C(=O)Nc2ccccc2)CC1,2%
CCOC(=O)N1CCC(N2Cc3cccc(C(=O)NCc4ccccn4)c3C2=O)CC1,1%
COc1ccc(CCC(C(O)C(F)(F)F)S(=O)c2ccccc2)cc1 (stereo unspecified),-7%
O=S(=O)(c1ccccc1)N1CCC2(CCN(Cc3nccs3)CC2)CC1,3%
COC(=O)C1CCN(C(=O)COC(=O)CC(NC(N)=O)c2ccc(Cl)cc2)CC1 (stereo unspecified),5%
COCCn1c(C)cc(C(=O)COC(=O)C23CC4CC(CC(O)(C4)C2)C3)c1C,10%
Cc1nnc(NC(=O)NCN2C(=O)C3C4C=CC(C4)C3C2=O)s1 (stereo unspecified),-1%
Cc1ccc(-n2c(CNc3ccc(F)cc3)nnc2SCC(=O)NCc2ccco2)cc1,-13%
COc1ccc(C(=O)N2CCC3(CCN(C(=O)Nc4ccccc4)CC3)CC2)cc1,4%
O=C1NC(=O)c2cc(NC(=O)C3CCCCC3)ccc21,25µM*
Cn1c(=O)n(Cc2ccccc2F)c(=O)c2c1nc1n2CCCN1CCc1ccccc1,9%
COc1ccccc1-c1nnc(SCC(=O)Nc2cc(C)on2)o1,1%
Cc1ccccc1N(CC(=O)NCc1ccc2c(c1)OCO2)C(=O)CCC(=O)Nc1ccccn1,3%
CCOC(=O)N1CCC(N2C(=O)c3ccccc3C2Nc2ccccc2C)CC1 (stereo unspecified),-24%
CN(C(=O)CSc1nc2ccccc2n1CCc1ccccc1)C1CCS(=O)(=O)C1 (stereo unspecified),-16%
COc1ccc(N(CC(=O)NCc2cccnc2)S(=O)(=O)c2c(C)nn(C)c2C)cc1,8%
Cc1ccc2c(c1)N(Cc1ccncc1)C(=O)C(C)O2 (stereo unspecified),10%
CCn1c2ccccc2c2cc(NC(=O)N3CCOCC3)ccc21,7%
COCCn1c(SC(C)C(=O)Nc2ccc3c(c2)OCCO3)nc2ccccc2c1=O (stereo unspecified),-1%
COc1ccc(C(=O)NCCn2ccc3ccccc32)cc1OC,9%
Cn1c(=O)c(CCc2ccccc2)nc2cnc(N3CCOCC3)nc21,25µM*
OCCN1CCN(c2nc(N3CCCCC3)nc(N3CCCCC3)n2)CC1,0%
CCCn1nnc(NC(=O)COc2ccc(Cl)cc2)n1,-7%
COC(=O)[C@@H]1C[C@@H]2CC[C@@H](O)C[C@@H]2N1Cc1ccc(C)s1,-8%
CCCNc1nc2c(c(=O)n(C)c(=O)n2C)n1Cc1ccc(F)cc1,3%
CCCCOc1ccccc1NC(=O)c1ccc(=O)[nH]c1,11%
Cc1cc(C)nc(N2CCC(C(=O)Nc3ccc(Oc4ccccc4)cc3)CC2)n1,1%
COc1ccccc1-c1cc(NCc2cccnc2)ncn1,?
COC(=O)c1ccc(OCC(O)CN(CCO)CCO)cc1 (stereo unspecified),3%
Cc1nc2c(c(C)nn2-c2ccccc2)c(C)c1Cl,32µM*
Cc1c(C(=O)NCc2ccc3c(c2)OCO3)oc2ccc(S(=O)(=O)N3CCCC3)cc12,25µM*
CN1CCN(S(=O)(=O)c2ccc(Sc3nc4ccccc4[nH]3)c3nsnc23)CC1,7%
Cc1ccc(NC(=O)CS(=O)CC(=O)Nc2ccc3c(c2)OCO3)cc1Cl (stereo unspecified),-11%
Cn1cccc1Cc1nnc(SCC(N)=O)n1-c1ccc(F)cc1,8%
CC1CCN(S(=O)(=O)c2ccc(NC(=O)Cn3nnc(-c4ccccc4)n3)cc2)CC1,-8%
O=S(=O)(c1ccc(F)cc1)N1CCC(N2CCCC2)CC1,15%
COc1ccc(Oc2ncnc3c2oc2ccc(Br)cc23)cc1,9%
C=CCn1c(COc2ccc(CC)cc2)nnc1SCC(=O)N(C)C1CCS(=O)(=O)C1 (stereo unspecified),2%
CCOC(=O)C1C(=O)C=C(c2cccc(NS(C)(=O)=O)c2)CC1c1ccco1 (stereo unspecified),-6%
Cc1ccc(C#CC2C=CC(Oc3ccc4c(c3)OCO4)C(CO)O2)c(C)c1 (stereo unspecified),-1%[11.4 µM]
COc1ccc(N2CCN(C(c3ccccc3OC)c3nnnn3Cc3ccco3)CC2)cc1 (stereo unspecified),4%
Cc1ccsc1-c1nc(CSCC(=O)NCCN2CCCC2)c(C)o1,32µM*
O=C1CC(N2CCN(c3ccc(O)cc3)CC2)C(=O)N1Cc1cccs1 (stereo unspecified),?
CC(C)NC(=O)C1CCCN(S(=O)(=O)c2cccs2)C1 (stereo unspecified),-4%
COC(=O)CNC(=O)C1CCCN1C(=O)CNC(=O)OC(C)(C)C (stereo unspecified),4%
CC(=O)OC/C=C(\C)CCC=C(C)C,0%
Cn1c(=O)[nH]c(=O)c2c1nc(N1CCCCCC1)n2CCSc1nc2ccccc2o1,2%
Cc1ccc(N2CC(C(=O)NCc3cccnc3)CC2=O)cc1 (stereo unspecified),2%
COc1ccc(CCNS(=O)(=O)c2ccc(C3CNC(=O)C3)cc2)cc1OC (stereo unspecified),6%
CC1CN(C(=O)c2cc3ccccc3oc2=O)CC(C)O1 (stereo unspecified),-2%
# (listing goes on)
SMILES,HSD17B inhib
COc1ccc(-c2nnc(Nc3nc4c(OC)cccc4s3)o2)c(OC)c1,25µM*
O=C(CSc1nnc(NC(=O)C2CCC2)s1)NC1CC1,3%
Cn1c(=O)c2c(nc(CN3CCN(Cc4ccccc4)CC3)n2CCN2CCOCC2)n(C)c1=O,2%
CCC1Oc2ccccc2N(CC(=O)NCCCN2CCCCC2C)C1=O (stereo unspecified),9%
N#Cc1c(N)nc(SCc2ccccc2)c(C#N)c1-c1ccco1,?
O=C(COc1ccccc1)Nn1cnc2ccccc21,25µM*
COCCCNC(=O)CCc1nc(-c2ccccc2)no1,7%
O=C(OCC(=O)N1CCN(C(=O)c2ccco2)CC1)c1sc2ccccc2c1Cl,-18%
CC1CCCN(C(=O)c2cc3c(-c4ccc(Cl)cc4)nn(C)c3s2)C1 (stereo unspecified),-7%
COc1ccc(NC(=O)C(CCS(C)(=O)=O)NC(C)=O)cc1 (stereo unspecified),-1%
O=C(O)CCCC(=O)Nc1nc(-c2ccccc2)cs1,11%
OC(C#Cc1ccccn1)c1cccs1 (stereo unspecified),-25%
Cc1cc(NC(=O)CSc2cn(CCNC(=O)c3ccc(F)cc3)c3ccccc23)no1,2%
CCN=C1SC(CC(=O)Nc2ccccc2)C(=O)N1CC (stereo unspecified),13%
O=c1nc(-c2ccccc2)cn[nH]1,4%
O=C(c1ccc(Cl)cc1)C1C2C(=O)N(c3ccccc3)C(=O)C2C2CCCN21 (stereo unspecified),-16%
O=C(O)CCSc1nnc(-c2ccc3c(c2)OCO3)o1,?
O=C(O)C1C2C=CC3(CN(C4CCCC4)C(=O)C13)O2 (stereo unspecified),-2%
O=C(/C=C/c1ccc(O)cc1)c1cccs1,?
O=C(CCC(=O)Nc1nnc(C2CCCCC2)s1)NCc1cccs1,1%
O=C(CN(Cc1ccc2c(c1)OCO2)C(=O)c1cnsn1)NC1CCCC1,11%
CCc1ccc2[nH]c(=O)c(C(c3nnnn3CCOC)N3CCN(c4ccccc4F)CC3)cc2c1 (stereo unspecified),-20%
COCCn1nnnc1C(c1ccc(OC)cc1OC)N1CCN(c2ccccc2)CC1 (stereo unspecified),10%
COc1ccccc1CNC(=O)C(CCSC)NS(=O)(=O)c1ccc2c(c1)oc(=O)n2C (stereo unspecified),11%
COc1ccc(CC(NC(C)=O)C(=O)NC2CCN(c3nc(C)cc(C)c3C#N)CC2)c(OC)c1 (stereo unspecified),32µM*
COc1cccc(NC(=O)Cn2c(=O)oc3ccccc32)c1,9%
CCC(=O)N/C(N)=N/c1nc(C)c2cc(OC)ccc2n1,20µM*
O=C(CCCCCNS(=O)(=O)c1ccc(Br)cc1)NCCN1CCOCC1,3%
CC1(C)CC(=O)C=C(Nc2ccccc2F)C1,2%
CC1(C)CC(CC(=O)O)(c2ccccc2)CCO1 (stereo unspecified),12%
O=C(CN1C(=O)CCS(=O)(=O)c2ccccc21)NCc1ccc(F)cc1,2%
Cc1ccc(S(=O)(=O)Nc2ccc(Br)cc2/C=N/n2cnnc2)cc1,-7%
O=C(NCCC1=CCCCC1)C1CCN(S(=O)(=O)c2ccc(-n3cnnn3)cc2)CC1,-1%
Cc1cnc(C(=O)Nc2ccc(-n3cnnn3)cc2)cn1,-3%
CN(CCNC(=O)C1CCN(S(=O)(=O)c2cnc[nH]2)CC1)Cc1ccccc1,20%
C=C(C)Cn1c(CCNC(=O)C(C)C)nc2ccccc21,1%
O=C1CCCC(O)=C1C=NCCc1ccccc1,-1%
Cc1cccc(N=C2NC(=O)CS2)c1,-2%
CCOC(=O)c1c(CN(CC)CC)oc2cc(Br)c(O)cc12,-7%
O=C(CNC(=O)c1ccccc1)NCCc1nc2ccccc2[nH]1,4%
Nc1nc2nonc2nc1N1CCCCC1,32µM*
CCOC(=O)C(C(=O)Nc1nccs1)C1CCCCC1 (stereo unspecified),5%
COc1ccc(S(=O)(=O)NCC2CCC(C(=O)NCc3ccco3)CC2)cc1 (stereo unspecified),4%
CC1CCN(S(=O)(=O)c2ccc3ncn(CC(=O)N(C)Cc4ccccc4)c(=O)c3c2)CC1,-1%
Cc1ccc(-c2nc(CSCC(=O)N3CCN(c4ccccn4)CC3)c(C)o2)cc1,-17%
CC(CCC(=O)O)C1CCC2C3C(=O)CC4CC(=O)CC[C@@]4(C)C3CC(=O)[C@]12C (stereo partly specified),-1%
CC1CCN(CCNC(=O)CCS(=O)(=O)c2ccc(Br)cc2)CC1,8%
O=C(O)C(c1ccccc1)N1CCCC1 (stereo unspecified),-2%

# Entries listed so far with two or more sulfur atoms (13):
SMILES,HSD17B inhib
O=C(OCC#CCSc1nc2ccccc2s1)c1ccco1,-11%
CCC1CCCCN1S(=O)(=O)c1ccc(NC(=O)CSc2ncccc2C(=O)O)cc1 (stereo unspecified),2%
COc1ccc(S(=O)(=O)Nc2cccc(SC)c2)cc1OC,6%
O=C(Nc1nc(-c2ccc(S(=O)(=O)N3CCCC3)cc2)cs1)c1cccs1,?
O=S(=O)(c1ccccc1)N1CCC2(CCN(Cc3nccs3)CC2)CC1,3%
CN(C(=O)CSc1nc2ccccc2n1CCc1ccccc1)C1CCS(=O)(=O)C1 (stereo unspecified),-16%
CN1CCN(S(=O)(=O)c2ccc(Sc3nc4ccccc4[nH]3)c3nsnc23)CC1,7%
C=CCn1c(COc2ccc(CC)cc2)nnc1SCC(=O)N(C)C1CCS(=O)(=O)C1 (stereo unspecified),2%
Cc1ccsc1-c1nc(CSCC(=O)NCCN2CCCC2)c(C)o1,32µM*
CC(C)NC(=O)C1CCCN(S(=O)(=O)c2cccs2)C1 (stereo unspecified),-4%
O=C(CSc1nnc(NC(=O)C2CCC2)s1)NC1CC1,3%
O=C(CCC(=O)Nc1nnc(C2CCCCC2)s1)NCc1cccs1,1%
COc1ccccc1CNC(=O)C(CCSC)NS(=O)(=O)c1ccc2c(c1)oc(=O)n2C (stereo unspecified),11%

# Next section:
SMILES,HSD17B inhib
Cc1cc(NC(=O)COC(=O)c2ccc(S(=O)(=O)N3CCCc4ccccc43)cc2)no1,-1%
COc1cccc2cc(-c3nnc(SCC(=O)Nc4nc(C)cs4)n3C)oc12,-24%
COC(=O)c1sc(S(=O)(=O)N2CCN(c3ccccc3)CC2)c(C(=O)OC)c1C,-5%
Cc1nc2ccc(S(=O)(=O)NC(C(=O)NCc3ccco3)C(C)C)cc2s1 (stereo unspecified),5%
CCOC(=O)Cn1c(C(=O)OCC)cc2sccc21,?
Cc1nn(-c2ccccc2C(=O)O)c(=O)c2ccccc12,9%

# Only part of the results is shown (hit frequency here may not be typical).
